High-throughput results deposited in PubChem by National Center for Advancing Translational Sciences (NCATS).
miR-21 FLuc: qHTS Assay for Modulators of miRNAs and/orActivators of miR-21. HeLa miR-21 FLuc reporter, luciferase, 48 h. 340,000 tested, under 10 active. Potency, µM (top dose mostly 38.3 µM), for inactives: top-dose reporter change, positive = more light. AID 2288, 2010; active = well fitted rising curve with a large enough effect; inconclusive = small, poorly fitted or top-dose-only effect; inactive = no such curve, though single readings can be large or run the other way;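 further: % of control where 0% means no effect; miR-21 action dims this reporter so a rising signal means less miR-21 action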
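HeLa miR-21-FLuc reporter line, endogenous miR-21; 2000 cells/well in DMEM/10% FBS; compound titration up to ~40uM final, 48 h, 37 degree Celsius; luciferase detection reagent, 15 min lysis, CCD luminescence.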
Rango release inh: qHTS Assay for Inhibitors of RanGTP induced Rango (Ran-regulated importin-beta cargo) - Importin beta complex dissociation | Potency, µM (series often up to 46.1 µM), for inactives: at the highest dose activity change, negative = inhibition | AID 540253, 2011 | hit rate 0.071% among 340,000 | Biochemical FRET Rango-importin beta, RanGTP-induced dissociation | Snurportin-1 (Homo sapiens) + GTP-binding nuclear protein Ran (Homo sapiens) + Importin …; active means falling FRET ratio curve, often poorly fitted, with flat reads before Ran was added; inconclusive means other falling curves, or compound fluorescence or quenching; inactive means flat or rising ratio curve;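 further: potency means the concentration at half of the fitted maximal effect; % of control where 0% means no effect; nearly all actives have a fitted effect of over 45% in size; -100% = wells without RanGTP and RCC1; the record marks most hits as doubtful in a second field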
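Compounds sat 5 min at room temperature with 0.1 uM Rango biosensor plus 0.25 uM importin beta, then FRET pre-read. RanGTP-RCC1 (0.6 uM Ran, 2mM GTP, 0.2 uM RCC1) added for 45 min, and the CFP/YFP post-read measured blocked complex dissociation.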
Rango complex inh: qHTS Assay for Inhibitors of Rango (Ran-regulated importin-beta cargo) - Importin beta complex formation | hit rate 0.031% among 340,000 | Potency, µM (top dose mostly 92.2 µM), inactives show at the top dose inhibition of complex formation | Rango CFP/YFP FRET sensor + importin beta, 45 min; active = rising FRET ratio curve, often small or poorly fitted; inconclusive = mostly compound fluorescence or quenching in the first reads; inactive = flat curves in all reads;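 further: potency means the concentration at half of the fitted maximal effect; 0% = DMSO wells and 100% = buffer wells lacking importin beta; nearly all actives have a fitted effect of over 15% in size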
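Inhibition scored from the CFP 486 nm/YFP 530 nm FRET ratio 45 min after adding 0.125 microM importin beta to 50 nM Rango biosensor preincubated 5 min with compound (room temperature, PBS with DTT, Tween-20, BSA). No-importin wells as positive control.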
GLA inh pH 4.5: qHTS Assay for Inhibitors of Human alpha-Galactosidase at pH 4.5; Alpha-galactosidase A (Homo sapiens), P06280; AID 1467, 2008; activity change, negative = inhibition, % at 105 µM; purified enzyme, 4-MU-alpha-Gal fluorescence, pH 4.5; 230,000 tested, under 10 active; inconclusive = small, poorly fitted or top-dose-only inhibition, or a rising curve; inactive = flat fitted curve, though single readings scatter; no compound was filed as active;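 further: 0% = full activity with enzyme and -100% = basal without enzyme; dose as in the result columns while the protocol names 77 µM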
Target sequence (P06280 whole entry, looked up): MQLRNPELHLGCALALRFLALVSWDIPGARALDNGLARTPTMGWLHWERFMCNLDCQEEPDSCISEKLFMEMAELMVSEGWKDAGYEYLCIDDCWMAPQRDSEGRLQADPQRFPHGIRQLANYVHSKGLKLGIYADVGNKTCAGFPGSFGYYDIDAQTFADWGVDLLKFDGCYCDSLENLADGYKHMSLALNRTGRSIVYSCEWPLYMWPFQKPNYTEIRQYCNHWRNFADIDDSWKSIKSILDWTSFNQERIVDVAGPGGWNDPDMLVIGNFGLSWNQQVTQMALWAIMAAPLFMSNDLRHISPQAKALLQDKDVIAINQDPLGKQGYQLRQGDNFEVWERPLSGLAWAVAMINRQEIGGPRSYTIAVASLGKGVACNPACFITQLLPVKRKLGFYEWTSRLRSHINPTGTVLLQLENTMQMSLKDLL
The depositor's hits bear a star; ? = inconclusive; / = not tested or not shown; & = joins results of further samples.

smiles | miR-21 FLuc | Rango complex inh | Rango release inh | GLA inh pH 4.5
COc1cc(/C=N/Nc2nc3ccccc3[nH]2)ccc1O | -25% | -4.4% | -5% | 6
CCOC(=O)C1CCCN(c2ncnc3c2[nH]c2cccc(OC)c23)C1 (centres undefined) | -10% | / | / | 0
C[C@@H]1C2CC(C/C2=N\NC(=O)c2ccncc2)C1(C)C (some centres undefined) | -3% | 0.9% | -9% | /
O=C(C1c2ccccc2Oc2ccccc21)N1CCN(c2ccc(Cl)cc2)CC1 | 3% | -0.3% | -5% | -1
CCCCOC(=O)COc1ccc(Cl)cc1Cl | / | -0.1% | 9% | /
Oc1ccc(Nc2nc(-c3ccccc3O)nc3ccccc23)cc1 | 10% | -0.5% | 12% | /
O=C(NCCN1CCOCC1)c1cc(-c2ccccc2Cl)on1 | -17% | -0.1% | 5% | /
C[C@H](CO)N1C[C@H](C)[C@H](CN(C)S(=O)(=O)c2cccs2)Oc2ccc(NC(=O)Nc3ccc4c(c3)OCO4)cc2CC1=O | / | -0.6% | -2% | /
CCOc1ccc(OCC(=O)NCCS(=O)(=O)N2CCN(c3ccc(F)cc3)CC2)cc1 | 3%&0% | 1.4% | -7% | /
CC(NC(=O)NNC(N)=S)(C(F)(F)F)C(F)(F)F | 6% | -2.6% | 16% | -6
CCC(=O)N1c2ccc(S(=O)(=O)CCC(=O)Nc3nccs3)cc2CC1C (centres undefined) | 0% | -0.5% | 6% | -10
COc1cc(OC)cc(C(=O)NCCCCc2ccccc2)c1 | / | -4.6% | -6% | /

A section taken from the entries so far, for reference:
smiles | miR-21 FLuc | Rango complex inh | Rango release inh | GLA inh pH 4.5
COc1cc(/C=N/Nc2nc3ccccc3[nH]2)ccc1O | -25% | -4.4% | -5% | 6
CCOC(=O)C1CCCN(c2ncnc3c2[nH]c2cccc(OC)c23)C1 (centres undefined) | -10% | / | / | 0

Carrying on:
smiles | miR-21 FLuc | Rango complex inh | Rango release inh | GLA inh pH 4.5
Cc1ccc(NC(=O)CSc2nc3c(cc2C#N)C(=O)CCC3)cc1S(=O)(=O)N(C)C | 2% | -5.1% | -9% | 12
O=C(c1csc2c1CCCC2)N1CCN(c2cccc(C(F)(F)F)c2)CC1 | 1% | -0.7% | 5% | 1
O=C(NCc1ccccc1)c1ccc(C(=O)NCc2ccccc2)cc1 | / | -5.9% | -8% | /
Cn1nnnc1CCOCCc1nnnn1C | -6% | -0.2% | -7% | 2
O=C(/C=C/NNC(=O)c1ccccc1)c1ccccc1 | -44% | ? | -27% | 0
CCCCn1c(=N)n(CC(=O)c2ccco2)c2ccccc21 | 0% | 0.2% | -1% | -1
CC1CN(C(=O)COC(=O)c2ccc3ncsc3c2)CC(C)O1 (centres undefined) | / | -0.3% | 18% | /
CC(=O)C1CCC2C3CC(C)C4=CC(=O)CCC4(C)C3C(=O)CC12C (centres undefined) | / | 1.4% | -8% | /
COCCn1c(-c2ccccc2)csc1=Nc1cccnc1 | 8% | 3.8% | 2% | -5
CS(=O)(=O)Cc1ccc(C(=O)NCC2(N3CCCCC3)CCCCC2)cc1 | 4% | 0.0% | -6% | /
CC1(CCc2ccccc2)NC(=O)N(CC(=O)N2CCCCCC2)C1=O (centres undefined) | / | 0.7% | 7% | /
COCCCNC(=O)C1C2C=CC3(CN(Cc4ccc(C)cc4)C(=O)C13)O2 (centres undefined) | -3% | 0.7% | 4% | 14
Cc1ccc(C)c2[nH]c(=O)c(CN(CC3CCCO3)S(=O)(=O)c3ccc4c(c3)OCCO4)cc12 (centres undefined) | 0% | -0.6% | -9% | -10
CCOC(=O)c1ccc(NC(=O)CSCC(=O)OCC(=O)c2ccccc2)cc1 | -8% | -2.0% | -3% | -11
N#CCCCSc1nnc(CSc2nc3ccccc3s2)n1-c1ccccc1 | 0% | 1.4% | -7% | 1
CC(OC(=O)CNC(=O)c1ccc(Cl)cc1)C(=O)NC1CCCCC1C (centres undefined) | / | 2.9% | -16% | /
CC1CN(c2ccc(Cl)cc2)c2nc3c(c(=O)[nH]c(=O)n3C)n2C1 (centres undefined) | 0% | -0.5% | 13% | /
COc1ccc([C@H]2C(C(=O)O)=C[C@@H](CC3CCCC3)N2S(=O)(=O)c2ccc(C)cc2)cc1OC | / | -1.3% | 12% | /
COc1ccc(CSC2=CS(=O)(=O)c3ccccc3N2)cc1 | 0% | 3.8% | -2% | 4
CCOC(=O)N1CCC(Nc2c(NCCN3CCN(Cc4ccccc4)CC3)c(=O)c2=O)CC1 | -2% | 0.7% | -22% | 5
CC(=O)c1ccc(NC(=O)CN(C)CC(=O)Nc2cccc(F)c2)cc1 | 3% | -2.8% | -2% | -22
COc1cccc(NC(=O)c2ccnc(N3CCC(C(=O)NCc4cc(OC)ccc4OC)CC3)c2)c1 | 12% | ? | 9% | /
COc1ccc2[nH]c(=O)c(CN(C(C)=O)c3cccc(C)c3)cc2c1 | -3% | -12% | 4% | 3
N#Cc1ccc(C(c2nnnn2C2CCCC2)N2CCC(Cc3ccccc3)CC2)cc1 (centres undefined) | -7% | 0.0% | -2% | 4

2 entries picked at random from those above:
smiles | miR-21 FLuc | Rango complex inh | Rango release inh | GLA inh pH 4.5
COc1cccc(NC(=O)c2ccnc(N3CCC(C(=O)NCc4cc(OC)ccc4OC)CC3)c2)c1 | 12% | ? | 9% | /
COc1ccc(CSC2=CS(=O)(=O)c3ccccc3N2)cc1 | 0% | 3.8% | -2% | 4

Next structures.
smiles | miR-21 FLuc | Rango complex inh | Rango release inh | GLA inh pH 4.5
Cc1nc2nc(C)c(CCC(=O)N3CCc4ccccc43)c(C)n2n1 | -1% | -1.2% | 0% | 11
COc1cccc(CNCCNC(=O)c2ccco2)c1OC | 1% | 0.5% | -1% | 6
Cc1ccc(S(=O)(=O)N2c3ccccc3NC(=O)CC2C)cc1 (centres undefined) | -4% | -2.6% | 1% | 2
CN(Cc1ccccc1)C(=O)CN1C(=O)c2ccccc2S1(=O)=O | -6% | 2.7% | -11% | /
Cc1ccc(S(=O)(=O)N/N=C/c2cc(Br)c(C)o2)cc1 | -49% | -0.2% | -7% | -1
CCOc1ccc(NC(=S)Nc2ccc(F)cc2)cc1 | -31% | 2.5% | 9% | /
O=C(Nc1sc2c(c1C(=O)O)CCCC2)c1ccc(Cl)cc1 | 21% | -0.9% | -6% | /
Cn1cccc1C(=O)NC(=O)COC(=O)c1cc(S(=O)(=O)N2CCCCC2)ccc1Cl | 5% | 2.8% | 18% | -7
CCC1(CC(C)C)SC(N)=NC1=O (centres undefined) | / | -0.8% | 1% | /
COc1ccc(S(=O)(=O)N2CCCOC2CNC(=O)C(=O)NCCCN2CCOCC2)cc1C (centres undefined) | -1% | -1.1% | -1% | /
COc1cccc(-c2cc3onc(-c4ccccc4)c3c(=O)n2C)c1 | / | 3.6% | -6% | /
CCNC1=C(Cl)C(=O)c2ccccc2C1=O | 21% | -0.6% | -2% | /
Cc1cc(OCC(=O)OCC(=O)NCC2CCCO2)ccc1Cl (centres undefined) | / | 3.8% | -15% | /
O=C(NC(Nc1ncc(S(=O)(=O)c2ccc([N+](=O)[O-])cc2)s1)(C(F)(F)F)C(F)(F)F)c1ccc(Cl)cc1 | ? | -3.1% | 5% | -3
Cc1ccc(C(=O)NCc2nc3ccccc3[nH]2)o1 | -7% | ? | -2% | /
O=S(=O)(c1ccc(NC(=S)NCc2cccnc2)cc1)N1CCCCC1 | ? | 3.8% | -16% | -11
Cc1ccc(C)c(CN2CCC(n3nccc3NC(=O)C3CCCC3)CC2)c1 | -7% | 0.0% | 13% | /
COC(=O)c1cccc(NC(=O)CSc2nnc(COc3ccc(C#N)cc3)n2-c2ccccc2)c1 | 10% | 2.5% | 19% | -5
O=C1c2ccccc2C(=O)N1CC#CCN1CCN(C(c2ccccc2)c2ccccc2)CC1 | 1% | -1.5% | 1% | -8
O=C(O)CCCC(=O)Nc1c(F)c(F)c(F)c(F)c1F | -2% | 3.2% | -11% | 9
COc1cc2nc(N(CCCN(C)C)C(=O)c3ccc(S(=O)(=O)N(C)C4CCCCC4)cc3)sc2cc1OC | / | -0.2% | 9% | /
NC(=O)CSc1nnc(COc2ccccc2)n1CCc1ccccc1 | 1% | 0.3% | 3% | -1
COc1ccc(NC(=O)CN(C)C(=O)c2ccc3c(c2)S(=O)(=O)N=C2CCCCCN23)cc1 | -4% | 3.7% | -2% | /
CCNC(=S)N(CCc1c(C)[nH]c2ccccc12)Cc1cc(OC)c(OC)c(OC)c1 | 1% | -0.3% | -19% | -5
ON(CCc1ccccn1)Cc1ccccc1 | / | ? | -21% | /
CC(Sc1ccc2c(c1)OCCO2)C(=O)Nc1ccc(N2CCOCC2)cc1 (centres undefined) | -28% | -1.2% | -5% | 7
CN(C)c1ccc(/C=C2\SC(=O)N(CCc3nnc(N)s3)C2=O)cc1 | 9% | ? | ? | -5
O=C(NC(=S)NCCN1CCOCC1)c1ccc(F)cc1 | -16% | -1.7% | 20% | -2
CC(C)(C)c1cc(C(=O)N/N=C/c2ccco2)n[nH]1 | -54% | 2.1% | -10% | 8
C[N+]1(C)CCC(OC(=O)C(O)(c2ccccc2)C2CCCC2)C1 (centres undefined) | / | -0.1% | -19% | /
NNC(=O)c1nc(-c2ccccc2)n2c1CCCCC2 | -5% | -4.6% | -2% | 3
CC1(C)CC(=O)C2=C(C1)N(CC1CCCO1)C(=O)C2(O)C(F)(F)F (centres undefined) | -2% | -0.1% | -10% | 3
Cc1ccccc1NC(=O)Cn1nnc(S(=O)(=O)c2ccc(C(C)(C)C)cc2)c1N | -20% | -3.0% | -13% | 7
COc1ccc(OCC(=O)N2CCN(c3cccc(C(F)(F)F)c3)CC2)cc1 | -9% | -2.5% | -16% | -8
COc1ccc2c(COC(=O)c3ccc(C)c(S(=O)(=O)N4CCOCC4)c3)cc(=O)oc2c1 | / | ? | -8% | /
Cc1ccc(-c2cc(C(F)F)n3ncc(C(=O)Nc4ccc(S(=O)(=O)Nc5ccccc5C)cc4)c3n2)cc1 | 0% | 3.2% | -29% | -4
CCOC(=O)N1CCN(c2c(NCc3ccc(N(C)C)cc3)c(=O)c2=O)CC1 | 0% | 1.1% | -6% | 0
Cc1cc(C)n(-c2ccc(C(=O)N3CCC(CO)(Cc4ccccc4)CC3)cc2)n1 | 4% | 1.7% | 11% | 1
COc1ccc(S(=O)(=O)NC(CC(=O)NCCc2ccc(OC)c(OC)c2)C(C)C)cc1 (centres undefined) | -2% | -0.8% | -5% | -1
COCCNC(=O)C(=O)Nc1ccc2c(c1)N(S(=O)(=O)c1cccs1)CCC2 | / | 1.3% | 4% | /
O=C(NNC(=O)c1ccccc1-n1cccc1)c1ccc(Cl)c(Cl)c1 | 13% | 2.9% | 16% | 0
CC(C)(C)C(=O)/C=c1\[nH]c(=O)/c(=C\c2ccc(F)cc2)s1 | 7% | -4.7% | -12% | -4
Cn1c(N)c(C(=O)COC(=O)c2ccc(Cl)nc2)c(=O)n(C)c1=O | -1% | -2.4% | -4% | -8
CN(C)CCN1C(=O)NC(C)(c2ccc([N+](=O)[O-])cc2)C1=O (centres undefined) | 2% | 6.5% | -20% | 0
CCC1CCCCN1Cc1nc(Cc2ccccc2Cl)no1 (centres undefined) | 0% | 1.2% | 1% | -5
O=C(NCc1ccc(F)cc1)C1CCN(S(=O)(=O)N2CCCCC2)CC1 | -7% | -2.0% | -14% | 10
CCOC(=O)N1CCC(n2c(SCC(=O)Nc3nccs3)nc3ccsc3c2=O)CC1 | -5% | 6.7% | -32% | -2

Some of the compounds tested; the hit share may differ from the screen's.
